# Bioassay records from PubChem BioAssay.
# A1 apoptosis 2: A1 inhibitors via caspase activation, primary screen, cell-based, luminescence, HTS, two replicates; caspase activation, % (test concentration not listed); MEF A1-2A-BIM cells, caspase-Glo luminescence, 3 h; percent of clofoctol response, DMSO zero; 24,000 tested, under 10 active; in the data active = caspase activation above about 5.9%;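 also: wells of about 30 µL received 50 nL stock; the first replicate is given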
#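 Material: mouse embryonic fibroblasts co-expressing A1 and BIM (A1-2A-BIM), primed for A1 dependence / Quantity: 2500 cells/well / Buffer or medium: RPMI-1640 growth medium with 10% FBS / Doses: 50 nL compound per well, pinned / Schedule: 3 h compound exposure at 37 °C / Signal: Caspase-Glo luminescence (DEVD substrate) / Measure: Caspase-3/7 activation, seen as rise in luminescence signal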
# * = called active by the depositor. An excerpt; rates above refer to the full screens.
SMILES,A1 apoptosis 2
COc1ccc(S(=O)(=O)Nc2ccc3c(c2)CC(=O)N([C@H](C)CO)C[C@@H](C)[C@H](CN(C)Cc2ccc(-c4ccccc4)cc2)O3)cc1,-0.4
C[C@@H]1CN([C@@H](C)CO)C(=O)Cc2cc(NS(=O)(=O)c3ccccc3)ccc2O[C@@H]1CN(C)Cc1ccc(C(=O)Nc2ccccc2N)cc1,0.1
C[C@H]1CN([C@@H](C)CO)C(=O)c2cc(NC(=O)Nc3ccccc3)ccc2O[C@H]1CN(C)S(=O)(=O)c1ccccc1,1.5
C[C@@H]1CN([C@@H](C)CO)C(=O)c2cccc(NS(=O)(=O)c3ccc(Cl)cc3)c2O[C@@H]1CN(C)S(C)(=O)=O,-0.7
Cc1noc(C)c1NC(=O)N(C)C[C@H]1Oc2ccc(NS(=O)(=O)c3cn(C)cn3)cc2C(=O)N([C@@H](C)CO)C[C@@H]1C,1.0
COc1ccc(S(=O)(=O)Nc2cccc3c2O[C@H](CN(C)S(=O)(=O)c2ccc(Cl)cc2)[C@@H](C)CN([C@@H](C)CO)C3=O)cc1,0.7
C[C@H]1CCCCO[C@@H](CN(C)Cc2ccncc2)[C@@H](C)CN([C@@H](C)CO)C(=O)c2cc(NC(=O)Nc3ccccc3)ccc2O1,1.0
CC(C)NC(=O)N(C)C[C@@H]1Oc2ccc(NS(=O)(=O)c3cccs3)cc2CC(=O)N([C@H](C)CO)C[C@H]1C,1.7
C[C@@H]1CN([C@@H](C)CO)C(=O)c2cc(NC(=O)Nc3ccc4c(c3)OCO4)ccc2O[C@H]1CN(C)S(=O)(=O)c1cn(C)cn1,-0.3
COc1ccc(NC(=O)N(C)C[C@@H]2Oc3ncc(C#Cc4ccc(OC)c(OC)c4)cc3C(=O)N([C@H](C)CO)C[C@@H]2C)cc1,2.1
O=S(=O)(N[C@@H]1CCCN(Cc2cccc(OCCO)c2)C1)c1ccc(-c2ccccc2)cc1,0.3
C[C@H]1CCCCO[C@H](CN(C)Cc2ccncc2)[C@@H](C)CN([C@@H](C)CO)C(=O)c2cc(NS(C)(=O)=O)ccc2O1,-0.3
COc1ccc(S(=O)(=O)N(C)C[C@@H]2Oc3c(NS(=O)(=O)c4cccs4)cccc3C(=O)N([C@@H](C)CO)C[C@@H]2C)cc1,-1.3
C[C@@H]1CCCCO[C@@H](CN(C)Cc2ccc(C(=O)O)cc2)[C@H](C)CN([C@H](C)CO)C(=O)c2cc(NC(=O)Nc3ccc(C(F)(F)F)cc3)ccc2O1,0.3
Cc1ccc(S(=O)(=O)N(C)C[C@H]2OCCCC[C@H](C)Oc3ccc(NC(=O)Nc4ccccc4)cc3C(=O)N([C@@H](C)CO)C[C@H]2C)cc1,0.7
Cc1ccc(S(=O)(=O)N(C)C[C@@H]2Oc3c(NS(=O)(=O)c4ccc(F)cc4)cccc3C(=O)N([C@H](C)CO)C[C@@H]2C)cc1,-0.1
CC1=C(C/C=N/NC(=O)c2cccc(C(=O)NO)c2)C(C)(C)CCC1,-0.5
Cc1noc(C)c1NC(=O)N(C)C[C@H]1Oc2ccc(NS(=O)(=O)c3cn(C)cn3)cc2C(=O)N([C@@H](C)CO)C[C@H]1C,0.3
C[C@H](CO)N1C[C@H](C)[C@@H](CN(C)Cc2ccccc2)Oc2ccc(NS(=O)(=O)c3cn(C)cn3)cc2C1=O,0.0
C[C@@H]1CN([C@H](C)CO)C(=O)Cc2cc(NC(=O)Cc3cn(C)c4ccccc34)ccc2O[C@@H]1CN(C)Cc1ccc(-c2ccccc2)cc1,-0.3
CNC[C@H]1Oc2ccc(NS(=O)(=O)c3ccc(OC)cc3)cc2CC(=O)N([C@H](C)CO)C[C@@H]1C,-0.3
C[C@@H]1CCCCO[C@@H](CN(C)C(=O)Nc2ccc(C(F)(F)F)cc2)[C@H](C)CN([C@@H](C)CO)C(=O)c2cc(NC(=O)NC3CCCCC3)ccc2O1,0.8
Cc1noc(C)c1NC(=O)Nc1ccc2c(c1)C(=O)N([C@H](C)CO)C[C@H](C)[C@H](CN(C)C)O2,-0.2
Cc1noc(C)c1S(=O)(=O)Nc1ccc2c(c1)C(=O)N([C@@H](C)CO)C[C@@H](C)[C@H](CN(C)C(=O)Nc1cccc3ccccc13)OCCCC[C@@H](C)O2,-0.1
C[C@H]1CN([C@@H](C)CO)C(=O)c2cccc(NC(=O)c3ccc(-c4nccs4)cc3)c2O[C@H]1CN(C)CC1CC1,0.0
C[C@@H]1CN([C@@H](C)CO)C(=O)c2cccc(NC(=O)C3CCOCC3)c2O[C@@H]1CN(C)Cc1ccc(Cl)c(Cl)c1,-1.0
COc1ccc(CN(C)C[C@H]2Oc3ccc(NC(=O)C4CC4)cc3C(=O)N([C@@H](C)CO)C[C@H]2C)cc1,-0.5
Cc1ccc(S(=O)(=O)Nc2ccc3c(c2)CC(=O)N([C@@H](C)CO)C[C@H](C)[C@@H](CN(C)C(=O)Nc2ccccc2)O3)cc1,-0.3
C[C@H](CO)N1C[C@H](C)[C@@H](CN(C)Cc2ccc(C(F)(F)F)cc2)Oc2c(NS(=O)(=O)c3ccc(Cl)cc3)cccc2C1=O,-0.5
C[C@H]1CN([C@@H](C)CO)C(=O)Cc2cc(NC(=O)Nc3ccccc3)ccc2O[C@@H]1CN(C)C(=O)Nc1ccccc1,-0.3
COc1ccc(S(=O)(=O)Nc2ccc3c(c2)C(=O)N([C@H](C)CO)C[C@@H](C)[C@@H](CN(C)CC2CCCCC2)OCCCC[C@@H](C)O3)cc1,-0.5
COC(=O)CCCCCCC(=O)N/N=C/c1cc(OC)c(O)cc1Br,-0.8
C[C@@H]1CN([C@H](C)CO)C(=O)c2cc(N(C)C)ccc2O[C@@H]1CN(C)C,0.5
COC(=O)N(C)C[C@H]1OCc2cn(nn2)CCCC(=O)N([C@@H](C)CO)C[C@@H]1C,-1.7
Cc1ccc(S(=O)(=O)Nc2ccc3c(c2)CC(=O)N([C@H](C)CO)C[C@H](C)[C@@H](CN(C)S(=O)(=O)c2cccs2)O3)cc1,0.9
C[C@H](CO)N1C[C@H](C)[C@H](CN(C)C(=O)Nc2ccc3c(c2)OCO3)Oc2ccc(NS(C)(=O)=O)cc2CC1=O,-0.7
CNC[C@H]1Oc2c(N)cccc2C(=O)N([C@H](C)CO)C[C@@H]1C,-0.4
C[C@@H]1CN([C@H](C)CO)C(=O)c2cccc(NC(=O)NC3CCCCC3)c2O[C@H]1CN(C)S(=O)(=O)c1ccc(F)cc1,-0.9
COC(=O)CCCCCCC(=O)N/N=C/c1ccc(-c2ccccc2)c(F)c1,-1.6
C[C@H]1CN([C@@H](C)CO)C(=O)c2cc(NS(=O)(=O)c3ccc(Cl)cc3)ccc2O[C@@H]1CN(C)C(=O)Nc1ccc(F)cc1,-0.5
C[C@H](CO)N1C[C@H](C)[C@@H](CN(C)C(=O)Nc2ccccc2)Oc2ccc(NC(=O)NC3CCCCC3)cc2CC1=O,-0.9
C[C@H]1CCCCO[C@H](CN(C)Cc2ccccc2)[C@@H](C)CN([C@@H](C)CO)C(=O)c2cc(NC(=O)NC3CCCCC3)ccc2O1,0.9
Cc1noc(C)c1NC(=O)Nc1ccc2c(c1)C(=O)N([C@@H](C)CO)C[C@H](C)[C@H](CN(C)S(=O)(=O)c1cccs1)OCCCC[C@@H](C)O2,-2.1
Cc1noc(C)c1NC(=O)Nc1ccc2c(c1)C(=O)N([C@@H](C)CO)C[C@@H](C)[C@@H](CN(C)C(=O)Cc1ccccc1)OCCCC[C@@H](C)O2,0.3
C[C@H]1CN([C@@H](C)CO)C(=O)c2cccc(NC(=O)C3CCCCC3)c2O[C@@H]1CN(C)C(=O)Nc1cccc2ccccc12,0.1
C[C@@H]1CCCCO[C@H](CN(C)Cc2ccccc2)[C@@H](C)CN([C@H](C)CO)C(=O)c2cc(NC(=O)c3ccncc3)ccc2O1,-0.2
C[C@@H]1CN([C@@H](C)CO)C(=O)Cc2cc(NC(=O)CCN3CCOCC3)ccc2O[C@@H]1CN(C)CC1CC1,1.0
COc1ccc(NC(=O)N(C)C[C@@H]2Oc3c(NC(=O)c4cc(C)nn4C)cccc3C(=O)N([C@H](C)CO)C[C@H]2C)cc1,0.8

# Part of the list above in order of formula weight, highest first:
SMILES,A1 apoptosis 2
Cc1noc(C)c1NC(=O)Nc1ccc2c(c1)C(=O)N([C@@H](C)CO)C[C@H](C)[C@H](CN(C)S(=O)(=O)c1cccs1)OCCCC[C@@H](C)O2,-2.1
Cc1noc(C)c1NC(=O)Nc1ccc2c(c1)C(=O)N([C@@H](C)CO)C[C@@H](C)[C@@H](CN(C)C(=O)Cc1ccccc1)OCCCC[C@@H](C)O2,0.3
C[C@H]1CN([C@@H](C)CO)C(=O)c2cc(NS(=O)(=O)c3ccc(Cl)cc3)ccc2O[C@@H]1CN(C)C(=O)Nc1ccc(F)cc1,-0.5
C[C@@H]1CCCCO[C@H](CN(C)Cc2ccccc2)[C@@H](C)CN([C@H](C)CO)C(=O)c2cc(NC(=O)c3ccncc3)ccc2O1,-0.2
C[C@@H]1CN([C@H](C)CO)C(=O)c2cccc(NC(=O)NC3CCCCC3)c2O[C@H]1CN(C)S(=O)(=O)c1ccc(F)cc1,-0.9
C[C@H]1CN([C@@H](C)CO)C(=O)c2cccc(NC(=O)C3CCCCC3)c2O[C@@H]1CN(C)C(=O)Nc1cccc2ccccc12,0.1
COc1ccc(NC(=O)N(C)C[C@@H]2Oc3c(NC(=O)c4cc(C)nn4C)cccc3C(=O)N([C@H](C)CO)C[C@H]2C)cc1,0.8
C[C@H](CO)N1C[C@H](C)[C@@H](CN(C)C(=O)Nc2ccccc2)Oc2ccc(NC(=O)NC3CCCCC3)cc2CC1=O,-0.9
C[C@H](CO)N1C[C@H](C)[C@H](CN(C)C(=O)Nc2ccc3c(c2)OCO3)Oc2ccc(NS(C)(=O)=O)cc2CC1=O,-0.7
COC(=O)CCCCCCC(=O)N/N=C/c1ccc(-c2ccccc2)c(F)c1,-1.6

# Later entries:
SMILES,A1 apoptosis 2
C[C@@H]1CN([C@@H](C)CO)C(=O)Cc2cc(NS(C)(=O)=O)ccc2O[C@H]1CN(C)C,0.3
C[C@@H]1CN([C@H](C)CO)C(=O)c2cc(NC(=O)Nc3ccc4c(c3)OCO4)ccc2O[C@@H](C)CCCCO[C@@H]1CN(C)S(=O)(=O)c1cn(C)cn1,-0.7
Cc1noc(C)c1NC(=O)Nc1ccc2c(c1)CC(=O)N([C@@H](C)CO)C[C@@H](C)[C@H](CN(C)Cc1ccc(C(=O)O)cc1)O2,-0.1
C[C@@H]1CN([C@H](C)CO)C(=O)c2cc(NC(=O)NC3CCCCC3)ccc2O[C@@H]1CN(C)S(=O)(=O)c1ccccc1,0.7
C[C@@H]1CCCCO[C@@H](CN(C)C)[C@H](C)CN([C@@H](C)CO)C(=O)c2cc(NC(=O)c3ccncc3)ccc2O1,0.4
C[C@H]1CN([C@@H](C)CO)C(=O)c2cc(NC(=O)Nc3cccc4ccccc34)ccc2O[C@H]1CN(C)Cc1ccccc1,0.9
C#CCNC(=O)C1=C[C@H](c2ccc(C(F)(F)F)cc2)C[C@H](OCCCCO)O1,0.7
O=C(O)CCCCCC(=O)N/N=C/c1cc(O)ccc1Br,1.2
NC(=O)[C@@H]1[C@H]2C(=O)O[C@H](c3ccccc3)[C@H](c3ccccc3)N2[C@H](c2ccccc2OCCO)[C@@]12C(=O)Nc1ccc(C#CC3(O)CCCCCC3)cc12,0.0
Cc1ccc(S(=O)(=O)N(C)C[C@H]2OCCCC[C@@H](C)Oc3ccc(NS(=O)(=O)c4ccc(Cl)cc4)cc3C(=O)N([C@@H](C)CO)C[C@H]2C)cc1,0.3
COc1ccc(S(=O)(=O)Nc2ccc3c(c2)C(=O)N([C@H](C)CO)C[C@@H](C)[C@H](CN(C)C(=O)Nc2ccccc2)O3)cc1,-0.8
CC(C)NC(=O)Nc1cccc2c1O[C@@H](CN(C)Cc1ccc(Cl)c(Cl)c1)[C@@H](C)CN([C@@H](C)CO)C2=O,-0.4
COc1ccc(NC(=O)Nc2ccc3c(c2)C(=O)N([C@@H](C)CO)C[C@@H](C)[C@@H](CN(C)Cc2ccc(-c4ccccc4)cc2)O3)cc1,-0.8
C[C@H]1CCCCO[C@@H](CN(C)C(=O)Nc2ccc(C(F)(F)F)cc2)[C@@H](C)CN([C@@H](C)CO)C(=O)c2cc(NC(=O)Nc3cccc4ccccc34)ccc2O1,1.5
C[C@@H]1CCCCO[C@@H](CN(C)Cc2ccc3c(c2)OCO3)[C@@H](C)CN([C@H](C)CO)C(=O)c2cc(NS(=O)(=O)c3cccs3)ccc2O1,0.9
C[C@H]1CCCCO[C@H](CN(C)C(=O)CCC(F)(F)F)[C@@H](C)CN([C@@H](C)CO)C(=O)c2cc(NS(=O)(=O)c3ccccc3)ccc2O1,-0.8
COc1ccc(S(=O)(=O)Nc2cccc3c2O[C@H](CN(C)Cc2ccc(C(=O)O)cc2)[C@H](C)CN([C@H](C)CO)C3=O)cc1,0.9
C[C@H]1CN([C@@H](C)CO)C(=O)c2cc(NC(=O)CCC(F)(F)F)ccc2O[C@H]1CN(C)C,0.3
C[C@@H]1CN([C@H](C)CO)C(=O)c2cccc(NC(=O)CCCCCC(=O)Nc3ccccc3N)c2O[C@H]1CN(C)Cc1ccc(C(F)(F)F)cc1,0.9
C[C@@H]1CN([C@@H](C)CO)C(=O)Cc2cc(NS(=O)(=O)c3cccs3)ccc2O[C@H]1CN(C)Cc1ccccc1,0.5
C[C@H](CO)N1C[C@H](C)[C@H](CN(C)C)OCCCC[C@H](C)Oc2ccc(NC(=O)Nc3ccc(C(F)(F)F)cc3)cc2C1=O,-0.3
C[C@@H]1CN([C@H](C)CO)C(=O)Cc2cc(NC(=O)Nc3ccc4c(c3)OCO4)ccc2O[C@H]1CN(C)Cc1ccncc1,0.1
C[C@H](CO)N1C[C@H](C)[C@H](CN(C)C(=O)NC2CCCCC2)Oc2ncc(Br)cc2C1=O,-0.7
CCCN(C)C[C@H]1OCCCC[C@@H](C)Oc2ccc(NS(=O)(=O)c3ccc(Cl)cc3)cc2C(=O)N([C@@H](C)CO)C[C@H]1C,-0.4
